KCNQ2 block = KCNQ2 channel blockers in CHO-K1 cells – cell-based, FluxOR thallium flux, B-score, primary screen (AID 2156); B-score at 10 µM; O88943; 20 min; active compounds read low; only compounds with negative scores are shown here; some inactives read as strong as hits; hit rate 1.1% among 310,000;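 active = fluorescence ratio B-score at most minus 3 library SDs, with starting brightness B-score within 2 library SDs, cut at about -5.5 in these data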
Target sequence (O88943 whole entry, looked up): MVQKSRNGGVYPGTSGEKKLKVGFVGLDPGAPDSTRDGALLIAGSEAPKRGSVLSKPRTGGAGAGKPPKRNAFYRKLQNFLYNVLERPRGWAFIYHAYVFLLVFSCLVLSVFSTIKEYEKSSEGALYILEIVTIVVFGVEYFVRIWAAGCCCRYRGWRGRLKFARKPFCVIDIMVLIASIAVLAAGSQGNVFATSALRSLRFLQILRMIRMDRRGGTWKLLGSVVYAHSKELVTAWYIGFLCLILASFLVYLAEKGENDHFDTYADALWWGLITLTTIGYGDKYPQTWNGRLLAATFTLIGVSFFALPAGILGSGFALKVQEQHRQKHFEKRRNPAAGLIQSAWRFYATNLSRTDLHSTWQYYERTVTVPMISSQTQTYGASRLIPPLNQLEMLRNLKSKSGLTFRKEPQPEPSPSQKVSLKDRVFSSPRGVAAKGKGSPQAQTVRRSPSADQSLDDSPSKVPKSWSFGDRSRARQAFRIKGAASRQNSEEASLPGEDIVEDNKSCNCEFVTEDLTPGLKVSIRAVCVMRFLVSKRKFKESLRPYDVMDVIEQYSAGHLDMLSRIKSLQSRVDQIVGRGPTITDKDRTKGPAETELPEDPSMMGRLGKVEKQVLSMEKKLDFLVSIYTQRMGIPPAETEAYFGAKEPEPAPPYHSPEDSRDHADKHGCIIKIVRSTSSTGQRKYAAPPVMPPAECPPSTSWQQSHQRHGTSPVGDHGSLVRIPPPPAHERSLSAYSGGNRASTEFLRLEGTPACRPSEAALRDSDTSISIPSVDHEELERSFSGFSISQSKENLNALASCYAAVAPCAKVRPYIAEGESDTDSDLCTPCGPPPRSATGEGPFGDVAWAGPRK
KCNQ2 block baseline = recorded beside KCNQ2 block, whose call it bears; B-score; measured here: initial fluorescence intensity artifact check;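 brightness before thallium and not channel activity; 0 = typical well and far values either way flag optical interference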
* hit, by the source's call. The list is partial. The share of hits here may be higher or lower than overall.

For O=C(NCC1OCCc2ccccc21)c1ccc(NC(=O)c2ccc(Cl)cc2)cc1 (stereo not given) the results were KCNQ2 block inactive and KCNQ2 block baseline -1.7.
Screening COc1ccc(N2C(=O)C(C)C(Cc3ccc(C)cc3)C2=O)cc1 (stereo not given) returned KCNQ2 block inactive and KCNQ2 block baseline 1.1.
Screening CCOC(=O)N1CCN(C(=O)c2cn(C)c3ccc(S(=O)(=O)N4CCC(C)CC4)cc3c2=O)CC1 returned KCNQ2 block inactive and KCNQ2 block baseline 1.4.
Screening COc1ccc2c(c1OC)C(=O)OC2Nc1nc(-c2ccc(-c3ccccc3)cc2)cs1 (stereo not given) returned KCNQ2 block inactive and KCNQ2 block baseline -0.14.
Cn1c(CNc2ccccn2)c(C#N)c2ccccc21 was read as KCNQ2 block inactive and KCNQ2 block baseline -0.74.
Screening Cc1ccc(-c2nn(CC(=O)NC(C)c3ccccc3)c(=O)c3ccccc23)cc1 (stereo not given) returned KCNQ2 block inactive and KCNQ2 block baseline 0.27.
Screening CC(=O)c1ccc(N2CCN(C(=O)Nc3ccc(Cl)cc3)CC2)cc1 returned KCNQ2 block inactive and KCNQ2 block baseline -0.3.
CC(O)CNCCCOc1ccc(Cl)cc1C(C)(C)C (stereo not given) was read as KCNQ2 block inactive and KCNQ2 block baseline 1.4.
`COCCCNC(=O)CCn1c(=O)c2ccccc2n(CC(=O)NCCc2ccc(OC)c(OC)c2)c1=O` gave KCNQ2 block inactive and KCNQ2 block baseline -0.99.
Cc1ccc(/C=N/N2CCN(Cc3ccccc3)CC2)o1 was read as KCNQ2 block inactive and KCNQ2 block baseline -0.05.
Cc1ccc(C)n1-c1nnc(N2CCC(C(=O)NCCCN3CCN(C)CC3)CC2)s1 was read as KCNQ2 block inactive and KCNQ2 block baseline -0.75.
For COc1cccc(/C=C2\SC(=S)N(N3C(=O)CCCC3=O)C2=O)c1 the results were KCNQ2 block inactive and KCNQ2 block baseline 0.07.
`COC(=O)c1c(NC(=O)c2ccoc2C)sc2c1CCC2` gave KCNQ2 block inactive and KCNQ2 block baseline -0.12.
Screening Cc1ccc2nc(N3CCC(C(=O)O)CC3)nc(-c3ccccc3)c2c1 returned KCNQ2 block inactive and KCNQ2 block baseline 1.5.
Screening NC(=O)c1oc2ccccc2c1NC(=O)c1ccccc1 returned KCNQ2 block inactive and KCNQ2 block baseline -0.11.
Screening O=S1(=O)C[C@H]2NC(=S)N(c3ccccc3)[C@H]2C1 returned KCNQ2 block inactive and KCNQ2 block baseline 0.22.
For CC1CCCC(NC(=S)Nc2ccc(SC(F)F)cc2)C1C (stereo not given) the results were KCNQ2 block inactive and KCNQ2 block baseline 0.51.
`COc1ccc(N=C2S/C(=C\c3ccc(Cl)c([N+](=O)[O-])c3)C(=O)N2CCN(C)C)cc1` gave KCNQ2 block -5.6* and KCNQ2 block baseline -6.3*.
Screening CC(C)(C)c1ccc(C(=O)O/N=C(\N)c2ccccc2)cc1 returned KCNQ2 block inactive and KCNQ2 block baseline -0.39.
COc1ccc(OC)c(NC(=O)CSc2nnc(C3CCCCC3)o2)c1 was read as KCNQ2 block inactive and KCNQ2 block baseline -1.9.
For CCCn1c(=O)c(C(=O)NNS(=O)(=O)c2ccc(Cl)cc2)c(O)c2ccccc21 the results were KCNQ2 block inactive and KCNQ2 block baseline -0.5.
For Cc1ccc(S(=O)(=O)NCC(=O)Nc2ccc(C(F)(F)F)cc2)cc1 the results were KCNQ2 block inactive and KCNQ2 block baseline 3.6.
Screening CC(C)(C)OC(=O)N1CCC(C(N)=O)CC1 returned KCNQ2 block inactive and KCNQ2 block baseline -0.08.
`CSC(=N/N=C(\N)c1cnccn1)SC` gave KCNQ2 block inactive and KCNQ2 block baseline -0.05.
For COC(=O)C(C#N)c1nc2ccccc2nc1N1CCN(Cc2ccc3c(c2)OCO3)CC1 (stereo not given) the results were KCNQ2 block inactive and KCNQ2 block baseline -1.5.
For CCN(CCNC(=O)C1CCN(S(=O)(=O)c2c(C)noc2C)CC1)c1ccccc1 the results were KCNQ2 block inactive and KCNQ2 block baseline 1.9.
`Cc1csc(NC(=O)CSc2nnc(Cc3cccn3C)n2-c2ccc(F)cc2)n1` gave KCNQ2 block inactive and KCNQ2 block baseline -1.8.
For CCCOc1ccccc1N1C(=O)CC(N(O)c2ccccc2)C1=O (stereo not given) the results were KCNQ2 block inactive and KCNQ2 block baseline -0.01.
Screening O=C1CN(C(=O)c2cccc([N+](=O)[O-])c2)CC(=O)N1 returned KCNQ2 block inactive and KCNQ2 block baseline 0.34.
CC(=O)C1=C(O)C(=O)N(CCc2ccccc2)C1c1ccccc1[N+](=O)[O-] (stereo not given) was read as KCNQ2 block inactive and KCNQ2 block baseline 0.79.
COC(=O)/C(=N/Nc1cccc(C)c1)N1CCCc2ccccc21 was read as KCNQ2 block inactive and KCNQ2 block baseline 1.4.
For O=C(COc1ccccc1)NCC1COc2ccccc2O1 (stereo not given) the results were KCNQ2 block inactive and KCNQ2 block baseline 0.81.
CS(=O)(=O)N(CC(=O)NCCSCc1ccccc1Cl)c1ccc(F)cc1 was read as KCNQ2 block inactive and KCNQ2 block baseline 1.2.
For COc1cccc(NC(=O)C2CC(=O)N/C(=N/NC(=O)c3ccc(C)cc3)S2)c1 (stereo not given) the results were KCNQ2 block inactive and KCNQ2 block baseline 1.2.
For CCc1c(C)n2nc(C)cc2[nH]c1=O the results were KCNQ2 block inactive and KCNQ2 block baseline -1.7.
Screening O=C(NCCCNCc1ccccc1)c1ccccn1 returned KCNQ2 block inactive and KCNQ2 block baseline 1.6.
`COc1cc(C(=O)Nc2ccc(S(=O)(=O)Nc3cc(C)nc(C)n3)cc2)cc(OC)c1OC` gave KCNQ2 block inactive and KCNQ2 block baseline 0.28.
Cc1ccc(C)c(S(=O)(=O)N2CCN(C(=O)CCCc3c[nH]c4ccccc34)CC2)c1 was read as KCNQ2 block inactive and KCNQ2 block baseline -1.3.
For COc1ccc2[nH]c(C)c(CCN(Cc3cccs3)C(=S)Nc3cccc(F)c3)c2c1 the results were KCNQ2 block inactive and KCNQ2 block baseline -2.8.
For O=C(NCc1ccncc1)C1=NN(c2ccccc2)C(=O)CC1 the results were KCNQ2 block inactive and KCNQ2 block baseline -0.27.

Among those listed so far, these contain a cyano group.
Cn1c(CNc2ccccn2)c(C#N)c2ccccc21 was read as KCNQ2 block inactive and KCNQ2 block baseline -0.74.
For COC(=O)C(C#N)c1nc2ccccc2nc1N1CCN(Cc2ccc3c(c2)OCO3)CC1 (stereo not given) the results were KCNQ2 block inactive and KCNQ2 block baseline -1.5.

Some of these compounds in order of molecular weight, highest first:
For COC(=O)C(C#N)c1nc2ccccc2nc1N1CCN(Cc2ccc3c(c2)OCO3)CC1 (stereo not given) the results were KCNQ2 block inactive and KCNQ2 block baseline -1.5.
CS(=O)(=O)N(CC(=O)NCCSCc1ccccc1Cl)c1ccc(F)cc1 was read as KCNQ2 block inactive and KCNQ2 block baseline 1.2.
For COc1cccc(NC(=O)C2CC(=O)N/C(=N/NC(=O)c3ccc(C)cc3)S2)c1 (stereo not given) the results were KCNQ2 block inactive and KCNQ2 block baseline 1.2.
For CCCOc1ccccc1N1C(=O)CC(N(O)c2ccccc2)C1=O (stereo not given) the results were KCNQ2 block inactive and KCNQ2 block baseline -0.01.
COC(=O)/C(=N/Nc1cccc(C)c1)N1CCCc2ccccc21 was read as KCNQ2 block inactive and KCNQ2 block baseline 1.4.

Next section.
Screening CCOC(=O)CSc1nc2sccc2c(=O)[nH]1 returned KCNQ2 block inactive and KCNQ2 block baseline 1.5.
`CC(C)Cn1c(=O)c(CCC(=O)Nc2ccc(N3CCOCC3)cc2)nc2cc(Cl)ccc21` gave KCNQ2 block inactive and KCNQ2 block baseline -0.46.
COc1ccc(-c2n[nH]c(=S)n2C2CCCCC2)cc1 was read as KCNQ2 block inactive and KCNQ2 block baseline 0.19.
`CCc1noc(C)c1C(=O)OCC(=O)c1ccccc1OC` gave KCNQ2 block inactive and KCNQ2 block baseline 0.55.
For COc1ccc(-c2nnc3ccc(SC)nn23)cc1 the results were KCNQ2 block inactive and KCNQ2 block baseline 0.1.
`CC1(C)Cc2c(sc3c2c(=O)n(-c2cccc(Cl)c2)c(=O)n3CC(N)=O)CO1` gave KCNQ2 block inactive and KCNQ2 block baseline -0.42.
For CCC(C)[C@@H](C(=O)Nc1ccc(OC)c(OC)c1)N1Cc2ccccc2C1=O (stereo not given in full) the results were KCNQ2 block inactive and KCNQ2 block baseline 0.27.
Screening Cc1cc(C)cc(OC(=O)CCN2C(=O)C3C4C=CC(C5CC45)C3C2=O)c1 (stereo not given) returned KCNQ2 block inactive and KCNQ2 block baseline -0.54.
Cc1ccccc1N/N=C/c1c(C)nc2ccccn12 was read as KCNQ2 block inactive and KCNQ2 block baseline -0.63.
Cc1ccc(SCC(=O)Nc2ccccc2C(=O)N2CCOCC2)cc1 was read as KCNQ2 block inactive and KCNQ2 block baseline 0.74.
For COc1cc(C(=O)N=c2sc3ccccc3n2C)cc(OC)c1OC the results were KCNQ2 block inactive and KCNQ2 block baseline -0.85.
Screening Cc1ccc(NC(=O)c2cccc(S(=O)(=O)NCc3ccccc3)c2)nc1 returned KCNQ2 block inactive and KCNQ2 block baseline -2.2.
Screening O=C(NC1CCCc2ccccc21)c1c(F)cccc1Cl (stereo not given) returned KCNQ2 block inactive and KCNQ2 block baseline -0.68.
For COc1cccc(NC(=O)c2ccc(-n3cnnn3)cc2)c1 the results were KCNQ2 block inactive and KCNQ2 block baseline -1.5.
CCn1c(CNc2cccc(Cl)c2)nnc1SCC(=O)OC1CCCCC1 was read as KCNQ2 block inactive and KCNQ2 block baseline 0.01.
Clc1ccc(-c2c[n+](Cc3ccc(Br)cc3)c3n2CCCCC3)cc1 was read as KCNQ2 block inactive and KCNQ2 block baseline -1.7.
`O=C(c1ccc(F)cc1Cl)N1CCN(S(=O)(=O)c2cccs2)CC1` gave KCNQ2 block inactive and KCNQ2 block baseline -0.98.
For N#C/C(=C\c1ccc(-c2cccc(Cl)c2)o1)C(=O)Nc1cccc2cccnc12 the results were KCNQ2 block inactive and KCNQ2 block baseline -2.1.
CCOC(=O)c1cc(S(=O)(=O)N2CCc3ccccc32)cn1C was read as KCNQ2 block inactive and KCNQ2 block baseline 0.07.
For O=C(NC(=S)Nc1ccc(CN2CCCCC2)cc1)c1ccco1 the results were KCNQ2 block inactive and KCNQ2 block baseline -1.4.

Of the compounds above, 3 contain a tert-butyl group.
CC(O)CNCCCOc1ccc(Cl)cc1C(C)(C)C (stereo not given) was read as KCNQ2 block inactive and KCNQ2 block baseline 1.4.
Screening CC(C)(C)c1ccc(C(=O)O/N=C(\N)c2ccccc2)cc1 returned KCNQ2 block inactive and KCNQ2 block baseline -0.39.
Screening CC(C)(C)OC(=O)N1CCC(C(N)=O)CC1 returned KCNQ2 block inactive and KCNQ2 block baseline -0.08.

Additional entries follow.
For Cc1ccc(Cl)cc1NC(=O)c1cccc(OC(F)F)c1 the results were KCNQ2 block inactive and KCNQ2 block baseline -0.02.
O=c1c(C=Nc2ccc(Oc3ccccc3)cc2)c[nH]n1-c1cccc(Cl)n1 was read as KCNQ2 block inactive and KCNQ2 block baseline 0.02.
`Cc1ccc(Cl)c(OCC(=O)N2CCc3ccccc3C2)c1` gave KCNQ2 block inactive and KCNQ2 block baseline 0.06.
Screening Cc1cc(OCC(=O)O/N=C(\N)c2ccccc2)ccc1Br returned KCNQ2 block inactive and KCNQ2 block baseline -1.3.
For Cc1cc(Oc2ccc(=O)n(C)n2)nc(SCC(N)=O)n1 the results were KCNQ2 block inactive and KCNQ2 block baseline 2.6.
Screening O=c1cc(-c2cccc3ccccc23)[nH][nH]1 returned KCNQ2 block inactive and KCNQ2 block baseline -0.51.
`COc1ccc(CCN=C(N)NS(=O)(=O)c2cc(F)ccc2F)cc1` gave KCNQ2 block inactive and KCNQ2 block baseline 0.8.
`Cc1noc(C)c1N=Nc1ccccc1C(=O)O` gave KCNQ2 block inactive and KCNQ2 block baseline 3.4.
Cn1c(CN2CCOCC2)nc2cc(NC(=O)c3ccc(Cl)cc3)ccc21 was read as KCNQ2 block inactive and KCNQ2 block baseline -1.2.
Screening CCn1c(SC/C=C/c2ccccc2)nnc1-c1cnccn1 returned KCNQ2 block inactive and KCNQ2 block baseline -1.1.
For Cc1ccccc1N1CC(C(=O)N2CC(C)OC(C)C2)CC1=O (stereo not given) the results were KCNQ2 block inactive and KCNQ2 block baseline -1.3.
COc1ccc(C)cc1NC(=O)c1cc(S(=O)(=O)N2CCCC2)cn1C was read as KCNQ2 block inactive and KCNQ2 block baseline 1.1.
CC1CCCCN1C(=O)CSc1nnc2c(n1)[nH]c1ccc(F)cc12 (stereo not given) was read as KCNQ2 block inactive and KCNQ2 block baseline -0.42.
For COc1ccc(/C=C(\NC(=O)c2ccc(Cl)cc2)C(=O)NCCCn2ccnc2)cc1OC the results were KCNQ2 block inactive and KCNQ2 block baseline 0.68.
Cc1nn(CC(C)C(=O)N2CCN(S(=O)(=O)c3ccc(Cl)cc3)CC2)c(C)c1C (stereo not given) was read as KCNQ2 block inactive and KCNQ2 block baseline 1.4.
For CCCCCCSc1ncc(C#N)c(N)n1 the results were KCNQ2 block inactive and KCNQ2 block baseline 2.
Screening Cc1cccc(C(=O)NNC(=O)C2CC2)c1 returned KCNQ2 block inactive and KCNQ2 block baseline -0.11.
Screening Cc1cccc(NC(=O)CN2C(=O)N/C(=C\c3cccn3-c3cccc(C(=O)O)c3)C2=O)c1 returned KCNQ2 block inactive and KCNQ2 block baseline -0.2.
Screening COc1ccc2c(c1)C1(Nc3ccccc3-c3nc4ccccc4n31)C(=O)N2 (stereo not given) returned KCNQ2 block inactive and KCNQ2 block baseline 0.52.
For Cn1c(=O)oc2cc(S(=O)(=O)CCC(=O)NCCc3ccccc3)ccc21 the results were KCNQ2 block inactive and KCNQ2 block baseline 0.46.
`O=C(NNC(=O)c1ccncc1)c1ccccc1` gave KCNQ2 block inactive and KCNQ2 block baseline 0.86.
Screening COc1ccc(O)c(C(=O)c2cnn(C(=O)c3cc(C)oc3C)c2)c1 returned KCNQ2 block inactive and KCNQ2 block baseline 0.17.
For O=c1[nH]c(/C=C\c2cccc(O)c2)nc(O)c1[N+](=O)[O-] the results were KCNQ2 block inactive and KCNQ2 block baseline 0.24.

Source: PubChem BioAssay (Johns Hopkins Ion Channel Center)
